# Screening data (PubChem)
# Menin-MLL FL inh: displaces fluorescein MLL peptide from human menin; FP activity change, % at 61.4 µM; Fluorescence polarization, fluorescein-MLL peptide displacement from menin; 290,000 tested, under 10 active; inconclusive = falling polarisation curve, or a change in total fluorescence; inactive = total fluorescence flat and polarisation flat or rising; no compound was filed as active; the % refers to the polarisation; negative = inhibition;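 also: % of control where 0% means no effect; inhibitors lower the polarisation; unlabelled MLL peptide was the positive control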
# gsp antagonist: gsp mutant antagonism | Potency, µM (series often up to 76.9 µM), without a hit: at the highest dose activity change, negative = inhibition, actives largely listed as inhibitors | actives 0.4% (n = 340,000) | AID 624288 | gsp-mutant cells, cAMP HTRF, 30 min; control for the full effect not named in the record; active = falling curve of any shape with a large fitted effect; inconclusive = falling curve, mostly with a smaller effect; inactive = flat or rising curve; cell line not stated here;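 also: intracellular cAMP measured with PDE inhibitor Ro 20-1724 present during compound exposure; potency is read from the fitted curve at half-maximal effect; % is scaled to controls: 0 for no effect and ±100 for the full control effect; nearly all actives have a fitted effect of over 65% in size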
#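 Cells, 2000/well, grown 16–24 h in DMEM 10% FBS with 0.5 mg/ml G418, then compounds plus […] (300 uM addition stock), 30 min at 37C. cAMP read by HTRF (cAMP-d2 and anti-cAMP antibody-K in lysis buffer) after 30 min RT.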
# ClpP mod: qHTS Assay for Activators of ClpP. actives 1.9% (n = 340,000). Potency, µM (series often up to 57.5 µM), without a hit: at the highest dose activity change, negative = active. purified B. subtilis ClpP, FRET peptide cleavage, 20 min. AID 651965, 2013; active = well fitted falling curve with a large enough effect; inconclusive = small, poorly fitted or top-dose-only effect; inactive = no such curve, though single readings can be large or run the other way; also: potency is read from the fitted curve at half-maximal effect; the source files actives as falling curves though it sought activators and does not explain the sign; nearly all actives have a fitted effect of over 65% in size; many hits overshoot -100%
# Target sequence (P80244 whole entry, looked up): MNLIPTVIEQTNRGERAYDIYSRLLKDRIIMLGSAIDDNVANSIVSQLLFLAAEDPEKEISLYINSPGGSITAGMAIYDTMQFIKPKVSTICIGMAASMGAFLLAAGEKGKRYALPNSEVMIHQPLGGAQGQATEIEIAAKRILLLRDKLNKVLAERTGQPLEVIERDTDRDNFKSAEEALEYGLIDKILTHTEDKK
#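 Buffer: 100 mM Tris/HCl pH8, 100 mM KCl, 0.05% low protease BSA, 2.5% glycerol, 0.01% Tween-20. ClpP 10 microg/mL final; 20 min RT; delta FRET normalized to ADEP and DMSO controls.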
# gsp ag: activates gsp, the McCune-Albright syndrome mutation | gsp mutant cells, cAMP HTRF, 30 min; control for the full effect not named in the record | Potency, µM (top dose mostly 76.9 µM), for the others: at the highest dose activation (cAMP increase), most hits filed as activators | actives 0.13% (n = 340,000); active = well fitted activation curve with a large enough effect; inconclusive = small, poorly fitted or top-dose-only effect, or another doubt; inactive = no such curve, though single readings can be large or run the other way; cell line not stated here;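 also: phosphodiesterase inhibitor Ro 20-1724 added with compounds to block cAMP breakdown; potency is read from the fitted curve at half-maximal effect; nearly all actives have a fitted effect of over 60% in size; about a fifth of the inactives were tested at one dose only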
#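 Cells stably selected in G418 were plated at 2000/well, grown 16-24 hr, then given compounds in DMSO with the PDE inhibitor […] (300 uM solution added) for 30 min at 37C; cAMP was read by HTRF.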
# TRPML1 inh: inhibitors of human TRPML1 channel; activity change, negative = inhibition, % (concentration not given with the values); AID 624415; Q9GZU1; actives 0.02% (n = 390,000); TRPML1-inducible cells, Ca2+ dye fluorescence, FDSS; hits give low values; inhibition of EC80 agonist-evoked calcium signal; in the data active means activity change below about -50%; inconclusive means about -30% to -50%; inactive means above about -30%;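 also: stimulus is agonist 54-4 at its EC80 concentration; % is scaled to controls: 0 for no effect and ±100 for the full control effect; compound concentration not given in the record; the text of the record puts the active cut at -80%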
# Target sequence (Q9GZU1 whole entry, looked up): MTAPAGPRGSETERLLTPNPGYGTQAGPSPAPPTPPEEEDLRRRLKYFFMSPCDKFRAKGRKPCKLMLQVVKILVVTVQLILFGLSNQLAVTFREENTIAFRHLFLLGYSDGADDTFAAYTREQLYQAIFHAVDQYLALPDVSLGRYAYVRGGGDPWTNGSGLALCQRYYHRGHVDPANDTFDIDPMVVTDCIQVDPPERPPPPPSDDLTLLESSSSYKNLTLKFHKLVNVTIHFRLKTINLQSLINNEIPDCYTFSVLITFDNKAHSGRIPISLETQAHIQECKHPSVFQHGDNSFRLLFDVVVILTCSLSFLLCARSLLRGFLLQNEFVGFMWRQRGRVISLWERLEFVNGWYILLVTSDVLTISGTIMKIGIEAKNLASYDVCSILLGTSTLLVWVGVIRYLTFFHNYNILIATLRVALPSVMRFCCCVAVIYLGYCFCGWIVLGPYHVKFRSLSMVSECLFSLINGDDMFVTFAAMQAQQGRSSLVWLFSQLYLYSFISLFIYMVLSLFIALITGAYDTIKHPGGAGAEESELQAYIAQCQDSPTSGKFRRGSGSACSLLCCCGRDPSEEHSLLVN
#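 Tet-induced TRPML1-DL cells loaded with Ca8 no-wash calcium dye were read kinetically on FDSS. Compound addition was followed by EC80 agonist 54-4 (4 uM final); inhibition was read over 110 s.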
# TRPML1 agonist: agonists of human TRPML1 channel; Q9GZU1; TRPML1-expressing cells, Ca2+ dye fluorescence, FDSS; host cell line not named in the record; reference of the full effect not given here; activation, % (no concentration beside the values); actives 0.12% (n = 410,000); AID 624414; in the data active = activation above about 50%; inconclusive = about 30% to 50%; inactive = below about 30%; also: 0% is about no effect; the text of the record puts the active cut at 80%
#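 Cells: TRPML1-DL, 1X Tet inducer, ~16 h at 37 degrees C/5% CO2. Dye: ABD Ca8 no-wash + quencher, 45-90 min RT. Read: 10 s baseline, compound add, 110 s agonist phase; 54-4 EC80 (4uM final), 110 s antagonist phase.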
# Active calls of the source: *; ? = inconclusive; nt = no result given; & = joins results of further samples; [ ] = dose if it differs, or a comment. The order is random; about 2.1% have a hit in one of these screens.
SMILES,Menin-MLL FL inh,gsp antagonist,ClpP mod,gsp ag,TRPML1 inh,TRPML1 agonist
NS(=O)(=O)c1cccc(NC(=O)CSc2nc3ccccc3c(=O)n2CCCN2CCOCC2)c1,3.0,2%,-1.8%,12%[15.4 µM],-13,0.5
S=C(Nc1ccc(Cl)cc1)N(CCCN1CCOCC1)Cc1ccco1,2.5,-4%,-1.7%,-2%[15.4 µM],1,-0.9
Cc1nc2ccccc2c2ncccc12,1.6,11%,-7.8%,17%,-23,1.2
COc1ccc(CNC(=O)[C@H](C)[C@@H]2C[C@@]2(C)[C@@H](NC(=O)OCc2ccccc2)c2ccccc2)cc1OC,4.8&-4.8,-21%,1.6%,nt,5,-0.5
COc1cc(NC(=O)C(Cc2ccccc2)n2cccc2)cc(OC)c1 (stereo not drawn),2.6,-7%,nt,-2%[15.4 µM],6,0.6
Cc1ccc(NC(=S)NC(=O)C2CCC2)cc1C,-0.1,-2%,-1.9%,-2%,-19,0.2
COc1ccc(S(=O)(=O)N2CC(C(=O)O)Oc3ccccc32)cc1 (stereo not drawn),-0.7,11%,nt,1%,-5,0.5
O=[n+]1cc(-c2cccc3ccccc23)n([O-])c2c1CCC2,1.2,10%,-0.9%,29%,17,0.1
C/C(=N\NS(=O)(=O)c1ccc(C)cc1)c1cccs1,-0.1,-18%,-1.9%,4%,-9,1.1
CCCS(=O)(=O)NCc1cn2cccc(C)c2n1,-1.5,-6%,?,13%,2,0.6
O=C1Cc2c(-c3ccccc3)cc(-c3cccc(Cl)c3)nc2-c2ccccc2N1,nt,-5%,25%,25%,-9,1.3
COc1ccc(CNC(=O)c2ccc(Cn3c(=O)c4cccn4c4cccnc43)cc2)cc1OC,nt,nt,-12%,nt,-11,-0.1
Cc1ccc(NC(=O)C(C)SCc2nc3sc(C)c(C)c3c(=O)[nH]2)nc1 (stereo not drawn),nt,7%,nt,-2%[15.4 µM],34,0.6
COc1ccc(S(=O)(=O)NC2CCCCC2)cc1F,nt,11%,0.0%,0%,3,1.1
CC[C@]12c3[nH]c4cc(-c5ccco5)ccc4c3CCN1C(=O)[C@@H](CC(=O)NCCCn1ccnc1)C[C@@H]2C(=O)N1CCN(C(=O)C2CC2)CC1,nt,-1%,3.6%,nt,7,2.0
CC1CN(CC(=O)Nc2nc3ccccc3s2)CC(C)O1 (stereo not drawn),5.2,6%,1.5%,-20%[15.4 µM],1,0.2
Cc1ccccc1-c1nc(CS(=O)CC(=O)NCCN2CCN(Cc3ccccc3)CC2)c(C)o1 (stereo not drawn),0.7,-7%,-1.3%,23%,2,-0.6
CCOC(=O)C1=C(C)NC(=S)N(C(C)=O)C1c1ccc(OC)c(OC)c1 (stereo not drawn),-1.5,0%,nt,-8%,-4,0.1
O=C(NCc1cccnc1)/C(=C/c1ccc(Cl)cc1)NC(=O)c1ccccc1,-3.8,-23%,3.0%,11%[15.4 µM],-7,-1.3
c1ccc(CCCc2nc(-c3ccccn3)no2)cc1,1.8,5%,-1.0%,10%,-13,0.4
CC(C)c1ccc(C2C3=C(CC(C)(C)CC3=O)NC3=C2C(=O)c2ccccc23)cc1 (stereo not drawn),0.3,-1%,-0.3%,-2%,3,1.0
Cc1ccc(NC(=O)C2CCCN2S(=O)(=O)c2cccc3nsnc23)cc1Cl (stereo not drawn),nt,nt,0.0%,nt,6,-0.6
Cc1cc2ncn(C(=O)N3CCCC3)c2cc1C,7.4,2%,-1.5%,-2%,-21,1.7
COc1ccc(CNC(=O)C(c2ccco2)N(C(=O)c2snc(C(N)=O)c2N)c2cccc(OC)c2)cc1 (stereo not drawn),2.5,-4%,nt,-2%,-11,2.3
COc1cc(CCC(=O)Nc2cc(S(=O)(=O)N3CCOCC3)ccc2OC(C)C)cc(OC)c1OC,nt,nt,1.4%,8%,-11,-0.6
Cc1cc(C)c(NS(=O)(=O)c2c(C(=O)N3CCOCC3)c(C)n(C)c2C)c(C)c1,nt,1%,-0.2%,11%,-11,0.8
CCc1ccc(S(=O)(=O)c2nnn3c2nc(Nc2ccc(F)cc2)c2cc(Cl)ccc23)cc1,nt,nt,-1.4%,nt,16,-0.6
O=C(O)CCC(=O)NNc1ccccc1[N+](=O)[O-],5.5,4%,-13%,?,-19,0.6
C=C(C)COc1ccc(-c2nc(N)ncc2-c2ccc(OC)c(OC)c2)c(O)c1,0.5,-25%,nt,15%,-4,1.9
O=C(Oc1ccc(Br)cc1C(=O)/C=C/c1ccccc1F)c1ccco1,nt,-3%,nt,-26%[15.4 µM],-10,0.2

# Quoted at random: 2 compounds from above, in no set order.
SMILES,Menin-MLL FL inh,gsp antagonist,ClpP mod,gsp ag,TRPML1 inh,TRPML1 agonist
C=C(C)COc1ccc(-c2nc(N)ncc2-c2ccc(OC)c(OC)c2)c(O)c1,0.5,-25%,nt,15%,-4,1.9
COc1cc(CCC(=O)Nc2cc(S(=O)(=O)N3CCOCC3)ccc2OC(C)C)cc(OC)c1OC,nt,nt,1.4%,8%,-11,-0.6

# (further entries)
SMILES,Menin-MLL FL inh,gsp antagonist,ClpP mod,gsp ag,TRPML1 inh,TRPML1 agonist
COc1ccc(/C=N/NC(=O)C(=O)Nc2ccccn2)cc1OC,3.6,2%,-14%,-18%,-6,-0.4
COCc1nnc(NC(=O)c2ccc(S(=O)(=O)N(C)Cc3ccccc3)cc2)o1,-3.6,-13%,nt,9%[15.4 µM],12,0.2
COc1ccc(CNC(=O)c2cccc3c(-c4cccc(C(N)=O)c4)coc23)cc1OC,nt,nt,-7.0%,nt,72,-1.0
O=C(CNC(=O)c1ccc(Cl)cc1)N/N=C/C=C/c1ccccc1,1.8,3%,nt,12%,-10,-0.4
CCC1CCCCN1C(=O)CSc1nc(-c2ccc(OC)c(OC)c2)cc(C(F)(F)F)n1 (stereo not drawn),nt,nt,3.8%,nt,5,1.5
C=CCSc1nnc(CNC(=O)c2ccccc2C)n1C(C)C,-2.6,9%,0.1%,-51%,3,2.3
CC(C)(C)C(=O)Nc1nnc(SCC(=O)NC2CC2)s1,-4.8,6%,nt,0%[15.4 µM],-11,0.6
COc1ccc(CNC(=O)c2ccc3c(c2)N(Cc2ccccc2)C(=O)c2ccccc2S3(=O)=O)cc1,nt,nt,-11%,nt,-4,0.2
Cc1csc(SCC(=O)NC(C)c2ccc(F)cc2)n1 (stereo not drawn),0.9,-17%,3.5%,-1%[15.4 µM],16,0.0
CCCCCCC(=O)OCC(=O)c1ccc2c(c1)NC(=O)CO2,0.3,1%,-0.1%,-3%[15.4 µM],13,0.9
CC(Sc1ccc(Cl)cc1)C(=O)Nc1ccccc1C(=O)N1CCOCC1 (stereo not drawn),2.2,1%,-2.9%,-29%,46,0.0
O=C1CC(Cc2ccc(Cl)cc2)C(=O)N1c1cc(Cl)ccn1 (stereo not drawn),-0.5,-11%,-9.2%,6%[15.4 µM],10,-0.9
Cc1cccc(OCC(O)CN2CCOCC2)c1 (stereo not drawn),1.2,5%,0.9%,4%,11,-0.4
CN(C)C(=S)NC(=O)C12CC3CC(C)(CC(C)(C3)C1)C2,4.0,9%,nt,0%,-3,0.1
O=C(Nn1cnc2ccccc2c1=O)c1ccccc1[N+](=O)[O-],-0.6,10%,nt,12%[15.4 µM],?,-0.6
O=C1OC(c2ccccc2)=N/C1=C\N1CCCCC1,0.6,?,0.7%,-53%[inhibitor],3,-0.1
C[C@@H]1COC(=O)[C@@H](CC(=O)OC(C)(C)C)C/C=C\C[C@@H](CC(=O)N(CCO)Cc2ccccc2)C(=O)N1,nt,8%,0.1%,nt,-9,-0.9
CCOC(=O)COc1ccc(F)cc1C(=O)c1ccn2nc(-c3ccc(Cl)cc3)cc2n1,nt,nt,-8.3%,nt,26,-0.4
CC(=O)NC(Cc1ccc(F)c(F)c1)C(=O)NC1CCN(S(=O)(=O)c2ccc(C)cc2)CC1 (stereo not drawn),3.3,-9%,0.7%,29%[15.4 µM],-7,-1.1
CCN1CCN(c2ccc(NC(=O)CCc3c(C)nc4c(-c5ccc(F)cc5)c(C)nn4c3C)cc2)CC1,-3.2,0%,1.8%,-128%[inhibitor],1,1.8
N#C/C(=C\c1ccc(Cl)cc1)c1nc(-c2cc3c(ccc4ccccc43)oc2=O)cs1,nt,nt,-4.0%,nt,-5,-0.8
O=[N+]([O-])c1ccc(COc2ccc(Br)cc2CN2CCOCC2)cc1,2.1,-9%,-0.2%,13%,40,4.7
O=C(c1nnc(Cc2ccc(Cl)cc2)o1)N1CCOCC1,0.7,9%,-1.1%,-53%[inhibitor],18,-0.7
COc1cc(C)ccc1OCCCOc1ccccc1Cl,1.6,0%[15.4 µM],-6.1%,10%,-16,3.0
COc1ccccc1C(=O)N1CCNC(=O)C1CC(=O)Nc1cccc(C)c1 (stereo not drawn),1.3,1%,-2.7%,-44%[inhibitor],15,1.1
CCCOc1ccc(N2C(=O)CC(SC(=NCC)Nc3cccc(F)c3)C2=O)cc1 (stereo not drawn),1.0,8%,-1.1%,-8%,15,1.5
Cc1ccc(NC(=O)Cn2c(=O)ccc3cc(S(=O)(=O)N4CCC(C)CC4)ccc32)cc1Cl,nt,nt,-27%,nt,-8,-0.2
O=C(c1ccccc1)c1ccc(Cn2cc(CCCO)nn2)cc1,-4.7,-7%,0.0%,-4%,10,0.1
Cc1cccc(OCC(=O)NCc2nnc3ccc(C(F)(F)F)cn23)c1C,nt,-7%,-3.3%,?,4,1.4
CCOC(=O)C1CCCN(S(=O)(=O)c2cc3c(cc2Cl)NC(=O)CO3)C1 (stereo not drawn),-9.5,-6%,0.5%,-34%[inhibitor],0,-0.2

# Record cards (already shown).
# `CCOC(=O)C1CCCN(S(=O)(=O)c2cc3c(cc2Cl)NC(=O)CO3)C1` (stereo not drawn) is listed as Menin-MLL FL inh = -9.5; gsp antagonist = -6%; ClpP mod = 0.5%; gsp ag = -34%[inhibitor]; TRPML1 inh = 0; TRPML1 agonist = -0.2
# `CCCOc1ccc(N2C(=O)CC(SC(=NCC)Nc3cccc(F)c3)C2=O)cc1` (stereo not drawn) is listed as Menin-MLL FL inh = 1.0; gsp antagonist = 8%; ClpP mod = -1.1%; gsp ag = -8%; TRPML1 inh = 15; TRPML1 agonist = 1.5

# Later entries.
SMILES,Menin-MLL FL inh,gsp antagonist,ClpP mod,gsp ag,TRPML1 inh,TRPML1 agonist
COC(=O)c1cccnc1Oc1ccccc1,3.4,12%,nt,-46%[inhibitor][15.4 µM],17,-0.2
CCCC(=O)NC(=S)Nc1cccc2c(O)cccc12,0.0,7%,nt,?,4,1.1
O=C(/C=C/c1ccc(O)c(O)c1)OC(Cc1ccc(O)c(O)c1)C(=O)O (stereo not drawn),-2.0&23&5.6,-10%,-11%,nt,nt,nt
COc1ccc(S(=O)(=O)N(NC2=NS(=O)(=O)c3ccccc32)C(=O)C(C)C)cc1,-3.7,0%,1.8%,?,-19,1.0
